Calb biofilm kill – mixture kills Candida albicans biofilm cells | C. albicans biofilm persisters + clotrimazole, fluorescence viability; primary screen in compound mixtures of four per well | inhibition, % at 7.6 µM | 120,000 compounds, 0.02% hits | AID 1242;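 active = inhibition above 30.3% in the primary screen of four-compound pools, then above 30% when the compound was retested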;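 also: compounds exposed to preformed 24 h biofilms for 48 h; the number belongs to the whole pool; some results filed as inactive read as strong as hits; inactives centre near 12; 0% = biofilm with clotrimazole alone and 100% = kill control; retested singly at about 60 µM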
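Test system: C. albicans CAF4-2 wild-type biofilms; buffer or medium: RPMI/MOPS medium, pH 7.0; schedule: 24 h biofilm formation, then 48 h compound exposure, 37 °C; detection: Alamar Blue fluorescence; measure: percent inhibition of biofilm viability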
Active calls of the source: *.

SMILES | Calb biofilm kill
COc1ccc(-c2nnc3ccc(SCC(=O)Nc4cc(C)on4)nn23)cc1OC | 12.1
COc1ccc2nc(/C=N/NC(=O)[C@H](CCSC)NC(=O)OC(C)(C)C)ccc2c1 | -1.1
Cc1nn(C)cc1C1C(C#N)=C(N)N(c2ccc(F)c([N+](=O)[O-])c2)C2=C1C(=O)CCC2 (configuration not stated) | -1.4
O=C(NNc1nc(-c2ccccc2)cs1)c1ccco1 | 7.3
COC(=O)C1=C(C)N=c2s/c(=C/c3cccs3)c(=O)n2C1c1ccc(F)cc1 (configuration not stated) | 19.7
Cc1ccc(CN2CCN(Cc3cccn3-c3ccccn3)CC2CCO)o1 (configuration not stated) | 18.3
COc1ccc(N/N=C/c2c(C(=O)O)ccc3ccccc23)cc1 | 18.7
CC(C)C(=O)NC(=O)[C@@H]1CCCN1C(=O)/C=C/c1ccccc1 | 7.4
Cc1ccc(S(=O)(=O)N2CCCOC2CNC(=O)C(=O)NCc2cccs2)cc1 (configuration not stated) | 20.0
Cc1cc(C(=O)Nc2cccc([N+](=O)[O-])c2)c(C)o1 | 17.7
O=C(Nc1cccc(S(=O)(=O)N2CCOCC2)c1)c1ccc2ccccc2n1 | 15.3
CCOCCCNC(=O)C(c1ccc(C)cc1)N(Cc1cccs1)C(=O)c1ccccn1 (configuration not stated) | 12.1
CCOC(=O)c1c(NC(=O)C[n+]2ccc(N(C)C)cc2)sc(C)c1C | 19.6
O=[N+]([O-])c1cccc(-c2ccc(C(=S)N3CCOCC3)o2)c1 | 11.6
O=C1NCCCC1C(=O)N1CCCCC1 (configuration not stated) | -1.9
Cc1ccc(Nc2nc(N)nc(CN3CCN(Cc4ccccc4)CC3)n2)cc1Cl | 24.4
CS(=O)(=O)N(CC(=O)Nc1ccc(S(=O)(=O)N2CCOCC2)cc1)c1ccccc1Br | 17.4
O=C(NNS(=O)(=O)c1ccc2ccccc2c1)c1cccs1 | 6.2
COc1ccc(OCCN2C(=O)c3ccccc3C2=O)cc1 | 1.2
Cn1/c(=N\NC(=O)C2CCCCC2)sc2ccccc21 | 6.7
COc1ccc(C(=O)n2nc(-c3ccco3)nc2N)cc1 | 19.4
COc1cnn(Cc2ccccc2)c(=O)c1SCc1ccccc1 | 7.1
CCN1CCCC1CNC(=O)c1ccc(N2CCOCC2)c(NS(=O)(=O)c2ccc(OC)cc2)c1 (configuration not stated) | 25.9
Cc1onc(-c2c(F)cccc2Cl)c1C(=O)NC(=S)NC1CCSC1=O (configuration not stated) | 10.5
CCOc1ccc(Nc2nc(Nc3ccc(O)cc3)nc(C)c2[N+](=O)[O-])cc1 | 1.3
CCCCNC(=O)CSc1nc(N)c(C(=O)Nc2ccc(OC)cc2)s1 | 19.5
COc1ccccc1OCc1nc(C#N)c(NCCCn2ccnc2)o1 | 20.5
CC(NC(=O)COC(=O)/C(=C/c1cccs1)c1cccs1)c1ccccc1 (configuration not stated) | 17.4
COc1cccc(/C=N/NC(=O)CSc2cccc3cccnc23)c1 | 25.1
Cn1nc(C(F)(F)F)c(C#N)c1N1CCN(c2ccccn2)CC1 | 3.8
COc1ccc(CC2(CO)CCN(Cc3cccnc3)CC2)cc1 | 19.4
Cc1nn(-c2ccccc2)c(C)c1C(=O)Nc1ccc(N2CCOCC2)cc1 | 8.6
COc1ccc2oc(=Nc3cc(F)ccc3F)c(C(N)=O)cc2c1 | -1.6
COc1ccccc1-c1nc(N)n[nH]1 | 2.4
CCCc1nc2oc3ccccc3c(=O)c2c(=O)n1-c1ccc(C)cc1 | 26.4
Cc1cccc(/C=C2\CCC(C3CCCC3)C2=O)c1 (configuration not stated) | 20.8
Nc1nc(C2CC(=O)OC23CCCCC3)cs1 (configuration not stated) | 3.2
Clc1ccc2oc3c(Cl)ncnc3c2c1 | 16.0
COC(=O)c1ccccc1NC(=O)CSc1nnnn1C | 14.4
Cc1ccccc1C(=O)OC(C)CN1CCN(C)CC1 (configuration not stated) | 9.8
CCCCCC(=O)Nc1cccc(C2=NOC3(C2)C[C@@H](C(N)=O)N(C(=O)Cc2ccc([N+](=O)[O-])cc2)C3)c1 (some centres not stated) | 14.3
COc1ccc(C(=O)NCc2nnc(SCC(=O)Nc3cccc(F)c3)o2)cc1 | 8.9
CN(C)CCCCCN(C)Cc1cc2ccccc2o1 | 20.1
O=C(c1ccccc1)N1CCN(C(=S)NCCc2ccccc2)CC1 | 8.4
O=C(O)c1ccc(N2CC3CC(C2)c2cccc(=O)n2C3)c(NC(=S)Nc2ccc(Cl)cc2Cl)c1 (configuration not stated) | 4.4
S=C(NCCc1ccccn1)Nc1ccc(Cl)c(Cl)c1 | 14.6
O=C(COC(=O)c1cc(=O)[nH]c2ccccc12)c1cccs1 | 22.4
COc1ccc(Cc2nnc(NC(=O)c3cccc([N+](=O)[O-])c3)s2)cc1 | 6.2
O=c1ccc(Cl)cn1Cc1ccccc1F | 5.9
Cc1ccc(C(=O)NC2CCN(S(=O)(=O)c3ccccc3)CC2)cc1 | 29.7
More results follow.
SMILES | Calb biofilm kill
CCC(=O)c1ccc(OCC(=O)N2CCCC2)c(OC)c1 | 19.3
O=c1c(Cc2ccc(Cl)cc2Cl)c(O)ccn1CCCN1CCOCC1 | 17.3
COc1ccc(NC(=S)N2CCNC(=O)C2CC(=O)Nc2ccc(C)cc2)cc1 (configuration not stated) | 1.0
Cc1ccc(-n2ncc(C(=O)Nc3cc(Cl)ccc3C)c2C2CCNCC2)cc1C | 5.4
COc1cc(/C(C#N)=C/c2cccc3ccccc23)c([N+](=O)[O-])cc1OC | 18.8
O=C1OCC(CO)(CO)N=C1NNc1ccccc1[N+](=O)[O-] | 13.6
CCC1=C(OC(=O)N(CC)CC)N2C(=O)OC(=NCc3ccccc3)[C@]2(C)[C@H]2C1=CC[C@H]1C(=O)N(CC)C(=O)[C@H]12 | 15.5
O=C(CSc1nc2ccccc2n1CC(=O)N1CCCCC1)N1CCCCC1 | 16.6
COc1cc2c(cc1OC)C(C)N(C(=O)c1cccc([N+](=O)[O-])c1)CC2 (configuration not stated) | 21.4
CCCN1Cc2cccc(C(=O)N3CCN(c4ccc(OC)cc4)CC3)c2C1=O | -0.2
COc1ccc2c(c1)C(C)=CC(C)(C)N2S(=O)(=O)c1ccc(C)cc1 | 2.0
Cc1cc(C)c2[nH]c(O)c(N=NC3=NC(=O)CS3)c2c1 | 11.8
Cc1c(Br)c([N+](=O)[O-])nn1CCCC(=O)N1CCN(c2ccccc2)CC1 | 13.9
COCCCNc1nc2c(-c3ccc(Cl)cc3)nnn2c2ccccc12 | 19.2
CCOC(=O)NC(=O)CSc1cc(C)c2cc(C)cc(C)c2n1 | 7.8
COc1ccc(S(=O)(=O)N2CCN(C(=S)NC3CCCCC3)CC2)cc1 | 11.8
Cc1cccc(Cn2ccc(NC(=O)c3ccc4c(c3)OCO4)n2)c1 | 10.4
COc1ccc([N+](=O)[O-])cc1NC(=O)CSCc1cc(C)cc(C)c1 | 3.2
CCCCNC(=O)NC1CCCC1 | 9.2
O=c1c(Cl)c(N2CCOCC2)cnn1-c1ncc(C(F)(F)F)cc1Cl | -9.7

Reformatted with tabs: entries from further up
mol	Calb biofilm kill
Cc1onc(-c2c(F)cccc2Cl)c1C(=O)NC(=S)NC1CCSC1=O (configuration not stated)	10.5
CCOc1ccc(Nc2nc(Nc3ccc(O)cc3)nc(C)c2[N+](=O)[O-])cc1	1.3
CCCCNC(=O)CSc1nc(N)c(C(=O)Nc2ccc(OC)cc2)s1	19.5
COc1ccccc1OCc1nc(C#N)c(NCCCn2ccnc2)o1	20.5
CC(NC(=O)COC(=O)/C(=C/c1cccs1)c1cccs1)c1ccccc1 (configuration not stated)	17.4
COc1cccc(/C=N/NC(=O)CSc2cccc3cccnc23)c1	25.1
Cn1nc(C(F)(F)F)c(C#N)c1N1CCN(c2ccccn2)CC1	3.8
COc1ccc(CC2(CO)CCN(Cc3cccnc3)CC2)cc1	19.4
Cc1nn(-c2ccccc2)c(C)c1C(=O)Nc1ccc(N2CCOCC2)cc1	8.6
COc1ccc2oc(=Nc3cc(F)ccc3F)c(C(N)=O)cc2c1	-1.6
COc1ccccc1-c1nc(N)n[nH]1	2.4
CCCc1nc2oc3ccccc3c(=O)c2c(=O)n1-c1ccc(C)cc1	26.4
Cc1cccc(/C=C2\CCC(C3CCCC3)C2=O)c1 (configuration not stated)	20.8
Nc1nc(C2CC(=O)OC23CCCCC3)cs1 (configuration not stated)	3.2
Clc1ccc2oc3c(Cl)ncnc3c2c1	16.0
COC(=O)c1ccccc1NC(=O)CSc1nnnn1C	14.4
Cc1ccccc1C(=O)OC(C)CN1CCN(C)CC1 (configuration not stated)	9.8
CCCCCC(=O)Nc1cccc(C2=NOC3(C2)C[C@@H](C(N)=O)N(C(=O)Cc2ccc([N+](=O)[O-])cc2)C3)c1 (some centres not stated)	14.3
COc1ccc(C(=O)NCc2nnc(SCC(=O)Nc3cccc(F)c3)o2)cc1	8.9
CN(C)CCCCCN(C)Cc1cc2ccccc2o1	20.1
O=C(c1ccccc1)N1CCN(C(=S)NCCc2ccccc2)CC1	8.4
O=C(O)c1ccc(N2CC3CC(C2)c2cccc(=O)n2C3)c(NC(=S)Nc2ccc(Cl)cc2Cl)c1 (configuration not stated)	4.4
S=C(NCCc1ccccn1)Nc1ccc(Cl)c(Cl)c1	14.6
O=C(COC(=O)c1cc(=O)[nH]c2ccccc12)c1cccs1	22.4
COc1ccc(Cc2nnc(NC(=O)c3cccc([N+](=O)[O-])c3)s2)cc1	6.2
O=c1ccc(Cl)cn1Cc1ccccc1F	5.9
Cc1ccc(C(=O)NC2CCN(S(=O)(=O)c3ccccc3)CC2)cc1	29.7
CCC(=O)c1ccc(OCC(=O)N2CCCC2)c(OC)c1	19.3
O=c1c(Cc2ccc(Cl)cc2Cl)c(O)ccn1CCCN1CCOCC1	17.3
COc1ccc(NC(=S)N2CCNC(=O)C2CC(=O)Nc2ccc(C)cc2)cc1 (configuration not stated)	1.0
Cc1ccc(-n2ncc(C(=O)Nc3cc(Cl)ccc3C)c2C2CCNCC2)cc1C	5.4

Carrying on:
SMILES | Calb biofilm kill
O=C1c2cccc3cccc(c23)C(=O)N1CC1CCCO1 (configuration not stated) | 6.5
O=C(CNC(=O)c1ccc(S(=O)(=O)N2CCCC2)cc1)N/N=C/c1ccccc1Cl | 11.2
Cc1ccc(NC(=O)CN2C(=O)/C(=C\c3cccs3)SC2=S)cc1 | 7.9
CS(=O)(=O)N(Cc1ccccc1Cl)c1ccc(C(=O)NCc2cccnc2)cc1 | 8.8
COC(=O)/C(=C/c1ccco1)NC(=O)c1ccco1 | -9.2
CCc1cccc(CC)c1-n1c(-c2cccnc2)n[nH]c1=S | 4.7
C/C(=N\NC(=O)CNc1cccc(C)c1)c1ccc(Br)s1 | 5.0
COc1cc(/C=C/C(=O)O)cc(S(=O)(=O)NCc2ccco2)c1OC | -4.8
COc1ccc(CCNC(=O)c2c([S-])n(-c3ccc(C)cc3)c3cccc[n+]23)cc1 | 17.2

An excerpt; rates above refer to the full screens.
